Compound activity: PubChem, Fisher Drug Discovery Resource Center
NPYLR7 agonist: activates Aedes aegypti NPYLR7 receptor; 0.15% of 270,000 active; activation, % at 10 µM; HEK293T NPYLR7/Galpha15, GCaMP6s calcium fluorescence; in the data active means activation above about 40%;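 further: 0% = vehicle and 100% = reference agonist at the receptor; some compounds past the cut are filed as inactive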
NPYLR7 agonist max-min: also measured in NPYLR7 agonist; calls as there; activation, %; measured here: Max-Min RFU normalised activation; some inactives read as strong as hits;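 span of the calcium signal over five minutes; 0% = vehicle and 100% = native peptide agonist; compound fluorescence can raise it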
* hit, by the source's call; & = joins results of further samples. These rows are one share of the data. The share of hits here may be higher or lower than overall.

structure	NPYLR7 agonist	NPYLR7 agonist max-min
CN(C(=O)c1ccccc1N1CCC(NC(=O)c2ccc(F)cc2)CC1)C1CCCCC1	-1	8
COc1cccc(CSc2nnc(C(C)NC(=O)Nc3c(Cl)cccc3Cl)n2-c2ccc(C)cc2)c1 (stereo not drawn)	-3	-1
COCC(=O)N(Cc1ccccc1)Cc1c(-c2ccccc2)noc1N(C)C(C)C	-1	22
C/C=C/C=C/C(=O)Nc1cccc(Oc2ncccc2C(=O)OCC)c1	-4	-9
Cc1noc(C)c1CN(C)C(=O)NCCN1c2ccccc2CC1C (stereo not drawn)	-1	-2
C=CCN1C(=O)NC(c2cccc(Cl)c2)C2=C1CN(CC(=O)NCCc1ccc(OC)c(OC)c1)C2=O (stereo not drawn)	-2	4
O=C(CSc1nc2c(cnn2Cc2cccc(Cl)c2)c(=O)[nH]1)NC1CCCCC1	-1	-2
COc1cccc(CC(C2CCN(C(=O)c3ccc(C)nc3)CC2)N(C)C(=O)c2ccsc2)c1 (stereo not drawn)	1	-1
COCCN(CC(=O)N(Cc1cccn1Cc1ccccc1Cl)C1CCCCC1)S(=O)(=O)c1ccc(F)cc1	20	21
CCc1ncc2c(n1)CN(C(=O)c1csc3c1CCCC3)C2	3	-6
Cc1nc(N2CCOCC2)c2oc3ccccc3c2n1	9	6
C=CCNC(=O)C(NC(=O)c1ccccc1)C1CCN(C(=O)COC)CC1 (stereo not drawn)	7	11

Compounds from the list above that have a thiophene ring, fused or not, in the order listed:
structure	NPYLR7 agonist	NPYLR7 agonist max-min
COc1cccc(CC(C2CCN(C(=O)c3ccc(C)nc3)CC2)N(C)C(=O)c2ccsc2)c1 (stereo not drawn)	1	-1
CCc1ncc2c(n1)CN(C(=O)c1csc3c1CCCC3)C2	3	-6

Going on with the list.
structure	NPYLR7 agonist	NPYLR7 agonist max-min
NC(=NOC(=O)c1ccc(Cl)cc1Cl)c1ccccn1	-2	3
CCOC(=O)C(C)Sc1ncnc2c1nnn2-c1ccc(OC)cc1 (stereo not drawn)	-1	15
COCCCN(Cc1cccc(F)c1)Cc1cccn1Cc1ccccc1F	1	17
COCCCNCc1nc2sc3c(c2c(=O)[nH]1)CCCC3	4	9
Cc1nc(SC2CCOC2=O)n(C2CCCCC2)c1C (stereo not drawn)	6	5
O=C(O)CC(O)(c1ncc[nH]1)C(F)(F)F (stereo not drawn)	-13	-11
COc1cc2c(cc1OC)C1CN(C(=O)C(OC(C)=O)c3ccccc3)CC(=O)N1CC2 (stereo not drawn)	19	10
COc1ccc(S(=O)(=O)Oc2ccccc2CN(CC2CCCO2)C(=O)C(C)C)cc1 (stereo not drawn)	-9	-2
C=CCOC(=O)C1C(C)=Nc2nc(SCC=C)[nH]c(=O)c2C1c1cccs1 (stereo not drawn)	3	4
Cc1cc(C)[n+]2c(-c3ccccc3)csc2n1	-8	-18
Cc1cccc(C(=O)N2C(C(=O)NCc3ccncc3)COC23CCC(C)CC3)c1 (stereo not drawn)	-1	1
Cc1c(C(=O)N(C)C2CCCCC2)cnn1-c1ccc(=O)[nH]n1	12	13
O=C(O)CSCC(=O)NC1CCSC1=O (stereo not drawn)	-1	-8
CC(O)C(O)[C@H]1CNc2nc(N)[nH]c(=O)c2N1 (stereo partly drawn)	14	-32
Cc1noc(CCCC(=O)N2CCC(N3CCNC3=O)CC2)n1	3	13
COc1cccc2c1Oc1[nH]c(-c3ccccc3)nc(=S)c1C2	12	9
COc1ccc(-c2ccc(C(=O)N3CCC(n4nccc4NC(=O)CC(C)C)CC3)o2)cc1	7	5
COc1cccc(SCC(=O)N2CCCc3cccc(OC)c32)c1	1	1
O=C(CCOc1ccccc1)Nc1ccccc1Cl	1	-1
COc1ccc(S(=O)(=O)c2c[nH]c3cc(OC)c(OC)cc3c2=O)cc1	6	5
O=C(CN1CCCc2c(F)cc(F)cc21)Nc1cc(F)ccc1F	3	-4
CC(Oc1ccccc1-c1ccc(-c2ccn[nH]2)cc1)C(N)=O (stereo not drawn)	-6	-5
CCc1cc(N2CCOCC2)nc(SCc2ccc(C(=O)NCCOC)cc2)n1	27	22
OCCNc1ncnc2sc3c(c12)CCCC3	18	12

The listing continues.
Every second line gives: NPYLR7 agonist | NPYLR7 agonist max-min
- Cc1ccc2nc(C)c(NC(=O)C3CCCCC3)c(=O)n2c1
  -2 | -3
- COC(=O)c1cc(C(=O)OC)cc(-c2ccc(CNCCN(C)C)o2)c1
  9 | 8
- COc1cc(C2C(C#N)=C(C)NC3=C2C(=O)CC(c2ccccc2)C3)cc(OC)c1OC (stereo not drawn)
  -5 | -11
- Cc1nn(C(C)C(=O)NNC(=S)Nc2ccc(F)cc2)c(C)c1[N+](=O)[O-] (stereo not drawn)
  4 | 10
- CN(CC1CCCN(CCc2ccc(F)cc2)C1)C(=O)c1cc2ccccc2cn1 (stereo not drawn)
  7 | 3
- O=C(NCc1cccnc1)C1COC2(CCCCC2)N1C(=O)c1ccc(Cl)c(Cl)c1 (stereo not drawn)
  2 | 15
- O=C(CCNC(=O)c1ccc(Cl)cc1)NC1(C(=O)O)CCCCC1
  -1 | 24
- Cc1cnc(CN(CCO)C(C)C)cn1
  22 | 15
- COc1cc(C2SCCN2C(=O)Nc2ccc(F)cc2F)ccc1OCc1ccccc1 (stereo not drawn)
  -7 | 4
- COC(=O)c1ccc(COC(CN2CCN(S(=O)(=O)c3cc(C)ccc3F)CC2)c2ccc(Cl)cc2)cc1 (stereo not drawn)
  5 | 2
- Cc1nccn1-c1ccc(NC(=O)C2CCCN(CCCc3ccccc3)C2)cc1 (stereo not drawn)
  -5&3 | -8&-8
- Cc1cccc(C(=O)N2N=C(CC(C)C)CC2(O)C(F)(F)F)c1 (stereo not drawn)
  5 | 2
- COc1ccc(CCNc2ncnc3sc(C(=O)NC[C@H]4C[C@@H]5C=C[C@H]4C5)c(C)c23)cc1OC
  -4 | -8
- CC1(C)C2CC=C(C=NNc3nc4ccccc4s3)C1C2 (stereo not drawn)
  2 | 1
- COC(=O)c1c(C)cccc1NC(=O)c1cccc(-n2cnnn2)c1
  2 | 2
- CCOc1ccccc1NC(=O)CC(=O)NC[C@H]1C[C@H]2C=C[C@H]1C21CC1
  4 | 4
- CCOC(=O)CSc1nnc(NC(=O)c2ccccc2C)s1
  23 | 26
- Fc1ccccc1C1CC(c2ccc(I)cc2)Nc2nnnn21 (stereo not drawn)
  14 | 3
- C=C(C)COc1c(CN2CCCC2c2c(C)noc2C)cccc1OC (stereo not drawn)
  -5 | -11
- COc1ccc(Nc2nc(C)cc(C)c2C#N)cc1
  -2 | -3

A draw from above in order of number of heavy atoms, high to low.
Every second line gives: NPYLR7 agonist | NPYLR7 agonist max-min
- COC(=O)c1ccc(COC(CN2CCN(S(=O)(=O)c3cc(C)ccc3F)CC2)c2ccc(Cl)cc2)cc1 (stereo not drawn)
  5 | 2
- COc1cc(C2C(C#N)=C(C)NC3=C2C(=O)CC(c2ccccc2)C3)cc(OC)c1OC (stereo not drawn)
  -5 | -11
- CCOc1ccccc1NC(=O)CC(=O)NC[C@H]1C[C@H]2C=C[C@H]1C21CC1
  4 | 4
- Fc1ccccc1C1CC(c2ccc(I)cc2)Nc2nnnn21 (stereo not drawn)
  14 | 3
- Cc1ccc2nc(C)c(NC(=O)C3CCCCC3)c(=O)n2c1
  -2 | -3

Following part
Every second line gives: NPYLR7 agonist | NPYLR7 agonist max-min
- CC1(C(=O)NS(=O)(=O)c2cccs2)CCN1C(=O)CC1CC1 (stereo not drawn)
  -1 | -4
- CCN(CC)C(=O)Oc1ccc2c(ccn2Cc2cccc(C)c2)c1NC(=O)C(C)Oc1ccccc1 (stereo not drawn)
  -5 | -14
- CCC(C)N(Cc1cccn1Cc1cccc(OC)c1)C(=O)CN(CCC(C)C)C(=O)COC (stereo not drawn)
  -8 | -7
- COC(=O)c1c(C)cc(O)cc1O
  -13 | -19
- CCN(C(=O)C(NC(C)=O)C1CCCC1)c1nc2ccccc2s1 (stereo not drawn)
  -3 | -1
- COc1ccc(-c2cc(C(=O)NCCN3CCCCC3)nc3c(-c4ccccc4)c(C)nn23)cc1
  0 | 10
- O=C1CSC(c2ccccn2)N1c1ccc(O)cc1 (stereo not drawn)
  -2 | -4
- CC(C)(C)C(=O)Nc1ccc2oc3ccc(NC(=O)C(C)(C)C)cc3c(=O)c2c1
  0 | -1
- Cc1cc(C(=O)NCCn2nc(-c3cccs3)n(C)c2=O)no1
  0 | -3
- CCCNC(=O)N(C)CCN1C(=O)C(C)SC1c1ccc(F)cc1 (stereo not drawn)
  1 | 3
- O=C(CCNC1CCN(Cc2ccccc2)C1)Nc1cccnc1 (stereo not drawn)
  1 | 12
- O=C(C=Cc1ccccc1)c1ccc(N2CCCC2=O)cc1
  15 | 10
- CN(C)C(=O)CC(Nc1nc2ccccc2s1)c1ccccc1 (stereo not drawn)
  4 | -10
- CCCC(=O)OCCNC(=O)c1cc2ccccc2oc1=O
  -3 | -5
- CC(CC(O)c1ccccc1)NC(=O)c1cscn1 (stereo not drawn)
  -2 | 5
- CC(C)N=C(NC#N)SCc1ccc(Br)cc1
  20 | 12
- CCOC(=O)CCC(=O)N(CCOC)CC(=O)Nc1cc(-c2ccccc2)nn1-c1ccccc1
  -2 | 7
- Cc1cccc(-n2nc3c(c2NC(=O)CC2CCCCC2)CS(=O)C3)c1C (stereo not drawn)
  -2 | -4
- O=C(CSc1nc(=O)[nH]c2c1CCCC2)N1CCCCCC1
  -3 | -7
- COC(=O)[C@@H]1[C@H](C(=O)N2CCC(c3ccccc3)CC2)[C@@H]2C=C[C@H]1C2
  -9 | -15

Single records, from the list above:
C=C(C)COc1c(CN2CCCC2c2c(C)noc2C)cccc1OC (stereo not drawn) as listed: NPYLR7 agonist = -5; NPYLR7 agonist max-min = -11
O=C(C=Cc1ccccc1)c1ccc(N2CCCC2=O)cc1 as listed: NPYLR7 agonist = 15; NPYLR7 agonist max-min = 10

In the list so far, these contain two or more sulfur atoms:
Every second line gives: NPYLR7 agonist | NPYLR7 agonist max-min
- C=CCOC(=O)C1C(C)=Nc2nc(SCC=C)[nH]c(=O)c2C1c1cccs1 (stereo not drawn)
  3 | 4
- O=C(O)CSCC(=O)NC1CCSC1=O (stereo not drawn)
  -1 | -8
- CCOC(=O)CSc1nnc(NC(=O)c2ccccc2C)s1
  23 | 26
- CC1(C(=O)NS(=O)(=O)c2cccs2)CCN1C(=O)CC1CC1 (stereo not drawn)
  -1 | -4

More results.
Every second line gives: NPYLR7 agonist | NPYLR7 agonist max-min
- COCCNC(=O)c1cc(-c2ccccc2OC)nc2cc(-c3ccccc3)nn12
  -9 | 0
- CC1(C)CCC(NC(=O)[C@@H](N)CCC(=O)O)CC1
  4 | -44
- CCCC(NC(=O)c1ccoc1C)c1ccccc1 (stereo not drawn)
  -3 | -5
- COc1ccc(CCN(C)C2CCCN(S(=O)(=O)c3c(C)n[nH]c3C)C2)cc1OC (stereo not drawn)
  7 | 5
- CCOc1ccc(-c2nnc(SC(F)F)n2CCC(=O)OCC(=O)/C(C#N)=C(\C)N)cc1
  -5 | 16
- CCN(CC)Cc1cnc2c(C(=O)Nc3ccc4c(c3)OCCO4)cnn2c1
  25 | 16
- Cc1ccc(-c2nc(Cn3c(=O)n(C(C)C)c(=O)c4ccccc43)c(C)o2)cc1
  2 | -3
- Cc1cc(O)c(CN(C)C)c2c1C(=O)/C(=C/c1ccncc1)O2
  16 | 10
- O=[N+]([O-])c1ccccc1S(=O)(=O)Nc1ccc(Cl)cc1Cl
  4 | 9
- Cc1oc(-c2cccc(Cl)c2)nc1CN1CCOC(CCO)C1 (stereo not drawn)
  5 | 2
